Screens as filed in PubChem.
ClpP mod – qHTS Assay for Activators of ClpP; Potency, µM (top dose mostly 57.5 µM), for inactives: at the top dose activity change, negative = active; AID 651965, 2013; ATP-dependent Clp protease proteolytic subunit (Bacillus subtilis (strain 168)), P80244; purified B. subtilis ClpP, FRET peptide cleavage, 20 min; 1.9% of 340,000 active; active = well fitted falling curve with a large enough effect; inconclusive = small, poorly fitted or top-dose-only effect; inactive = no such curve, though single readings can be large or run the other way; also: the source files actives as falling curves though it sought activators and does not explain the sign; nearly all actives have a fitted effect of over 65% in size; many hits overshoot -100%
Target sequence (P80244 whole entry, looked up): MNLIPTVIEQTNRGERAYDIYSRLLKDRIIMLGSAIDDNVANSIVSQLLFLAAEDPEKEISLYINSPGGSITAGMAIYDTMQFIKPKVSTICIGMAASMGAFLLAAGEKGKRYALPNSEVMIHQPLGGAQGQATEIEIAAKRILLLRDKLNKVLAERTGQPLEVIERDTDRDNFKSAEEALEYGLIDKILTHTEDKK
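Buffer: 100 mM Tris/HCl pH8, 100 mM KCl, 0.05% low protease BSA, 2.5% glycerol, 0.01% Tween-20. ClpP 10 microg/mL final; 20 min RT; delta FRET normalized to ADEP and DMSO controls.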
Starred values were filed as active, the others as inactive; ? = inconclusive; & = joins results of further samples. Potency is read from the fitted curve at half-maximal effect.

The opening 7 compounds, ahead of the listing:
SMILES | ClpP mod
CCN(CCCNC(=O)CSc1cc(=O)n(C)c2cc(Cl)ccc12)c1cccc(C)c1 | -3.8%
COc1cccc(NC(=O)CN2C=NS(=O)(=O)c3ccccc32)c1 | -1.7%
CCc1ccccc1NC(=O)CC1NCCNC1=O (stereo unspecified) | -0.6%
Nc1c(Br)cc(C=O)cc1Br | -3.0%
O=C(Nc1ccccc1)c1ccccc1OCc1ccccc1 | -4.4%
COc1ccc(CCNS(=O)(=O)c2cc(-c3cc(C)no3)ccc2C)cc1OC | 1.4%
Cc1ccc(N2CC(C(=O)Nc3ccc(Br)cc3)CC2=O)cc1 (stereo unspecified) | -2.1%

The list itself, repeating the preview:
SMILES | ClpP mod
CCN(CCCNC(=O)CSc1cc(=O)n(C)c2cc(Cl)ccc12)c1cccc(C)c1 | -3.8%
COc1cccc(NC(=O)CN2C=NS(=O)(=O)c3ccccc32)c1 | -1.7%
CCc1ccccc1NC(=O)CC1NCCNC1=O (stereo unspecified) | -0.6%
Nc1c(Br)cc(C=O)cc1Br | -3.0%
O=C(Nc1ccccc1)c1ccccc1OCc1ccccc1 | -4.4%
COc1ccc(CCNS(=O)(=O)c2cc(-c3cc(C)no3)ccc2C)cc1OC | 1.4%
Cc1ccc(N2CC(C(=O)Nc3ccc(Br)cc3)CC2=O)cc1 (stereo unspecified) | -2.1%
COc1ccc(Cn2c(CO)cnc2SCc2cccc(C)c2)cc1 | -0.5%
COc1ccc(-n2nc3ccc(NC(=O)COc4ccc(C)c(C)c4)cc3n2)cc1 | ?
CCOc1ccccc1CNC(=O)c1cnc2sc(N3CCOCC3)nn2c1=O | 2.8µM*
CCOC(=O)c1ccc(N2CCN(c3cc(Cl)ccc3C)CC2)c(NC(=O)Nc2cccc(OC)c2)c1 | 4.4%
CCOC(=O)C1CCCN(c2nc3c(S(=O)(=O)c4ccc(CC)cc4)nnn3c3ccc(Cl)cc23)C1 (stereo unspecified) | 3.7%
COc1cc(-c2nc(Cn3nnc(C(=O)Nc4ccccc4)c3C)c(C)o2)cc(OC)c1OC | 28µM*
COc1cc(Nc2nc(SCC(=O)c3ccc(Cl)c(Cl)c3)nc3ccccc23)cc(OC)c1 | -18%
Cc1ccc(-c2nc3scc(CCNC(=O)c4cccc(Br)c4)n3n2)cc1 | -1.7%
c1ccc(Nc2c(-c3c[nH]c4ccccc34)nc3ccccn23)cc1 | 4.1%
COc1ccccc1NC(=O)Cn1cc(S(=O)(=O)Cc2ccccc2)c2ccccc21 | -1.0%
CCc1ccc2nc(N(Cc3cccnc3)C(C)=O)sc2c1 | -3.2%
CCC(C)NC(=O)Cc1ccc(NC(=O)N2CCCCc3ccccc32)cc1 (stereo unspecified) | -1.8%
COc1ccc(S(=O)(=O)NCC(c2ccco2)N2CCN(c3ccccc3F)CC2)cc1C (stereo unspecified) | 1.8%
COc1ccc2c(CNC3CCCCCC3)c(C(=O)O)n(Cc3cccc(F)c3)c2c1 | -13%
COc1ccc(-c2cc3ccc(O)c(CN4CCOCC4)c3oc2=O)cc1OC | 4.4%
CCn1cc(S(=O)(=O)c2cc(C)cc(C)c2)c(=O)c2cc(F)c(N3CCCC3)cc21 | -29%
CCOc1ccc(CNC(=O)C2CCN(C3=NS(=O)(=O)C(c4ccc(C)cc4)=C3CC)CC2)cc1 | -2.3%
Cc1ccc(Cl)cc1-n1ncc2c(NCCC3=CCCCC3)ncnc21 | -18%
COc1ccc(C2CC(c3c(O)n(C4CCCCC4)c(=O)[nH]c3=O)=Nc3ccccc3S2)cc1 (stereo unspecified) | ?
COCCCNC(=O)Cn1c(=O)nc(-c2ccccc2)c2ccccc21 | -15%
O=C(NCC1CC1)c1ccc2nc(-c3ccoc3)c(-c3ccoc3)nc2c1 | -20%
Cc1ccccc1C(c1c(C)n(C)n(-c2ccccc2)c1=O)c1c(C)n(C)n(-c2ccccc2)c1=O | 0.2%
O=S(=O)(c1ccc(Br)cc1)N1CCN(c2nc(-c3cccs3)nc3ccccc23)CC1 | ?

2 of the compounds above, with tabs:
Structure	ClpP mod
Cc1ccccc1C(c1c(C)n(C)n(-c2ccccc2)c1=O)c1c(C)n(C)n(-c2ccccc2)c1=O	0.2%
O=S(=O)(c1ccc(Br)cc1)N1CCN(c2nc(-c3cccs3)nc3ccccc23)CC1	?

The listing continues.
SMILES | ClpP mod
COc1ccc(N2CCN(C(=O)c3c4c(nc5ccccc35)C(=O)N(C3CCCCC3)C4)CC2)cc1 | 0.9%
COc1ccc(NC(=O)c2oc3ccccc3c2NC(=O)Cc2ccc(F)cc2)c(OC)c1 | 4.3%
O=C(NCc1cccnc1)c1nn(-c2ccc(Cl)cc2)nc1CO | 28µM*
COc1ccc(S(=O)(=O)NCCS(=O)(=O)N2CCN(c3ccccc3F)CC2)cc1 | 0.1%
Cc1cc(C)c(S(=O)(=O)NCC(c2ccco2)N2CCN(c3ccccc3)CC2)c(C)c1 (stereo unspecified) | 1.1%
COc1ccccc1Cn1c(CNS(=O)(=O)c2ccc(Cl)s2)nc2cccnc21 | -11%
CCC(=O)C1=C(c2cccc([N+](=O)[O-])c2)N(C(=O)CC)n2c(nnc2C2CCCCC2)S1 | 1.0%
COc1ccc(C)cc1NC(=O)CSc1nc(=O)n(Cc2ccco2)c2c1CCC2 | -0.1%
CCc1nn(C(C)C(=O)N2CCN(c3cccc(C(F)(F)F)c3)CC2)c(=O)c2cc3occc3n12 (stereo unspecified) | -6.7%
Cn1ncc2c(NCc3ccc(F)cc3)ncnc21 | 0.0%
COc1ccccc1CCNC(=O)C1CCN(c2nnc(-n3cccc3CNc3ccc(C)cc3)s2)CC1 | -0.1%
COc1ccc(-c2cc(C(F)(F)F)nc(SCCC(=O)Nc3c(C)cccc3C)n2)cc1 | -9.2%
COc1ccc(C(=O)Nc2nnc(SCc3cc(=O)c4cc(C)ccc4[nH]3)s2)cc1OC | -0.6%
COc1ccc(N2CCN(S(=O)(=O)CCNC(=O)C(c3ccccc3)c3ccccc3)CC2)cc1 | 1.5%
COc1ccc(S(=O)(=O)NCCSc2nnnn2-c2ccccc2)cc1OC | -6.8%
CC1=C(c2ccc(C)cc2)S(=O)(=O)N(Cc2ccc(C(=O)NCc3ccccc3)cc2)C1=O | 5µM*
CCOC(=O)c1c(NC(=O)c2ccc(OC)c(OC)c2)sc2c1CCCCC2 | -18%
Cc1cc(C)c(Cn2c3ccccc3c3cnn(CC(=O)NCCCc4ccccc4)c(=O)c32)c(C)c1 | ?
COc1ccccc1OCC(=O)Nc1c(C(=O)c2ccc(C)cc2)oc2ccccc12 | -1.0%
Cc1cccc(NC(=O)CSc2nnc(-c3cccs3)o2)c1 | -1.4%
Cc1ccc(Nc2c(-c3ccsc3)nc3c(C)cccn23)cc1 | 3.6%&3.7%
CCC(C)NC(=O)c1ccc2c(=O)n3c(nc2c1)CCCCC3 (stereo unspecified) | -11%
Cc1ccc(NS(=O)(=O)c2c(C)nc3sc(C)c(C)n3c2=O)cc1F | -12%
O=C(CSc1n[nH]c(-c2ccc(F)cc2)n1)N1CCN(c2ccc(F)cc2)CC1 | 0.6%
COc1ccc(C(=O)Nc2nnc(C)s2)cc1 | -0.7%
CCc1ccc2c(c1)NC(c1cccs1)=NC(c1ccc(F)cc1)=N2 | 1.1%
COc1cccc(-n2ccnc2SCC(=O)Nc2cccc(C)c2C)c1 | -0.3%
Cc1ccc(-c2noc(CNC(=O)COc3cc(C)c(Br)c(C)c3)n2)cc1 | -1.2%
CCc1ccc(C2CC(=O)c3c([nH]c(C(=O)OCC4CCCCC4)c3C)C2)cc1 (stereo unspecified) | -1.7%
O=C(c1ccc(F)cc1F)N1CCC(c2noc(-c3ccc(S(=O)(=O)N4CCCC4)cc3)n2)CC1 | 0.5%

Two records picked at random from the list so far:
SMILES | ClpP mod
CCc1ccc(C2CC(=O)c3c([nH]c(C(=O)OCC4CCCCC4)c3C)C2)cc1 (stereo unspecified) | -1.7%
O=C(c1ccc(F)cc1F)N1CCC(c2noc(-c3ccc(S(=O)(=O)N4CCCC4)cc3)n2)CC1 | 0.5%

Further records follow:
SMILES | ClpP mod
CCc1nn2c(=O)cc(COC(=O)C(CC)c3ccccc3)nc2s1 (stereo unspecified) | -1.3%
CC(=O)Nc1ccccc1-c1nc2ccccc2n(CC(=O)c2ccc(C)c(C)c2)c1=O | -1.3%
O=C(c1ccc2c(c1)N(Cc1ccc(F)cc1)CCS2)N1CCN(c2ccccc2)CC1 | 4.1%
Cc1ccc(CN(C(=O)COc2cccc([N+](=O)[O-])c2)c2ccccn2)cc1 | -2.2%
CCOC(=O)c1c(C)[nH]c(C)c1S(=O)(=O)NCC(=O)N(C)c1ccc(C)c(C)c1 | -0.8%
COc1ccc(CN(Cc2ccccc2)C(=O)COC(C)=O)cc1COc1ccc(NC(C)=O)cc1 | -0.9%
Cc1ccc(NC(=O)Cn2c(=O)ccc3cc(S(=O)(=O)N4CCC(C)CC4)ccc32)c(C)c1 | -8.7%
Cc1cccn2c(=O)cc(COc3ccc(NC(=O)c4cccc(F)c4)cc3)nc12 | -8.3%
COc1ccc(Cl)cc1NC(=O)c1cn(C2CCCCC2)c(=O)c2c1c1ccccc1n2C | ?
CCOC(=O)N1CCc2c(sc3c2c(=O)n(CCc2ccccc2)c(=O)n3Cc2cc(C)ccc2C)C1 | -18%
C[C@@H]1[C@H](c2ccccc2)OCCS(=O)(=O)N1Cc1ccccc1F | -1.5%
CCCCn1c(SCC#N)nc2ccccc2c1=O | -3.1%
COc1ccc(C(=O)Nc2ccc3nc(SCC(=O)N4CCCC4)sc3c2)cc1 | 101%
CCOC(=O)c1cccc(NC(=O)c2ccc3c(Cl)c4c(nc3c2)CCC4)c1 | -5.9%
COC(=O)C[C@H]1c2ccccc2S(=O)(=O)N1c1ccc(N(C)C)cc1 | -0.9%
Cc1cccc(C)c1NC(=O)C(=O)NCC(c1cccnc1)N1CCc2ccccc21 (stereo unspecified) | -2.6%
Cc1c(Cl)cccc1NC(=O)C(C)N(c1ccccc1)S(C)(=O)=O (stereo unspecified) | -2.6%
COc1ccc(NC(=O)CCc2c(C)nc3cc(-c4cccc(F)c4)nn3c2C)cc1Cl | -8.5%
CCOC(=O)c1c(C)oc2ncnc(Nc3ccc(F)cc3Cl)c12 | 2.1%
Cc1ccccc1-c1nc(CS(=O)CC(=O)N2CCN(c3cc(Cl)ccc3C)CC2)c(C)o1 (stereo unspecified) | -4.9%
Cc1ccc(S(=O)(=O)Nc2cc3c(cc2N2CCOCC2)n(C)c(=O)n3C)c(C)c1 | -6.8%
O=C(Cn1nc(Cc2cccnc2)c2ccccc2c1=O)N1CCN(c2ccc(F)cc2)CC1 | -0.6%
CCOC(=O)c1c(C)[nH]c(C)c1S(=O)(=O)N1CCC(C(=O)Nc2cc(C)ccn2)CC1 | -2.0%
Cc1ccc(CNC(=O)CSc2c(C(C)C)cnc3c2c(=O)n(C)c(=O)n3C)cc1 | -2.3%
COc1ccc(Br)cc1CNC(=O)c1cc(=O)[nH]c2ccc(S(=O)(=O)N3CCCC3)cc12 | -20%
Cc1cc(C)c(NS(=O)(=O)c2cc(-c3cnc(C4CC4)o3)ccc2C)c(C)c1 | -0.7%
CCC(C)NC(=O)c1cnn(-c2ccc(Cl)cc2)c1C1CCN(C(=O)OC(C)(C)C)CC1 (stereo unspecified) | 1.3%
Cc1ccc(NC(=O)c2ccc(NC(=O)N3CCSc4ncccc43)cc2)cc1Cl | 32µM*
Cc1ccc2oc(=O)c3cc(C(=O)Nc4ccccc4C(N)=O)sc3c2c1 | -3.3%
CCc1cccc(NC(=O)Nc2ccc3c(c2)N(C)C(=O)c2ccccc2S3)c1 | -8.4%
Cc1ccc(CNC(=O)CCc2c(C)nn(-c3ccc(N4CCCC4)nn3)c2C)cc1 | -0.3%
COc1cccc(CNC(=O)c2ccc3c(c2)sc2nc(-c4ccccc4)cn23)c1OC | ?
Clc1ccc(/C=C/c2ccc3ccccc3n2)c(Cl)c1 | -6.3%
CCOC(=O)c1ccc(NC(=O)CN2C(=O)COc3ccc(Cl)cc32)cc1 | -3.7%
Cc1ccc2nc(-c3cccc(NC(=O)CSc4ccc(Cl)cc4)c3)oc2c1 | 4.7%
Cc1ccc(C)c(N2CCN(C(=O)c3cc4c(=O)n(Cc5cccs5)ccc4nc3C)CC2)c1 | ?
COc1ccc(-n2c(SCCC(C)C)nc3sc4c(c3c2=O)CC(C(C)C)OC4)cc1 (stereo unspecified) | -1.0%
Cc1ccc(C)c(N2CCN(C(=O)CN3C(=O)COc4ccc(S(=O)(=O)N5CCCC5)cc43)CC2)c1 | 1.0%
Cc1ccc(C)c(NC(=O)Cn2c(=O)n(Cc3ccc4c(c3)OCO4)c(=O)c3oc4ccccc4c32)c1 | 2.5%
Cn1ccnc1SCC(=O)Nc1cc(Cl)ccc1Cl | -0.9%
Cc1cc(C)c(NC(=O)C2CCCN(S(=O)(=O)c3c(C)noc3C)C2)c(C)c1 (stereo unspecified) | 1.8%
N#Cc1nc(-c2ccc(OCc3ccc(Cl)cc3)cc2)oc1N1CCCCCC1 | 3.8%
CCc1ccc(NC(=O)C2CCCN(S(=O)(=O)c3cccc4cccnc34)C2)cc1 (stereo unspecified) | -0.1%
CCCCN(C)CCCNC(=O)CN1C(=O)COc2ccc(S(=O)(=O)N3CCC(C)CC3)cc21 | 0.4%
O=C(Nc1ccc(Cl)cc1Cl)[C@@H]1CC=C[C@@H]2CCN(Cc3ccccc3)C(=O)[C@@H]21 | 0.5%
COc1ccc(-c2ccc(=O)n(CC(=O)NCCc3ccccc3)n2)cc1 | -12%
CCOc1ccc(CNCCSc2nnnn2C)cc1 | 0.4%
Cc1cccc(C)c1Nc1sc(C(=O)c2ccccc2)c(N)c1S(=O)(=O)c1ccccc1 | -5.7%
CN(C)c1ccc(NC(=O)CSC2=Nc3ccccc3C3=NC(CCC(=O)NCc4cccs4)C(=O)N23)cc1 (stereo unspecified) | 0.3%

A portion of the library, so the mix of outcomes need not match the whole.
